TSHR ag – TSH receptor (human) agonism; 0.48% of 73,000 active; AID 926; Potency, µM (titrated, usually from 57.1 µM), for the others: top-dose activation, usual class: activators; P16473; HEK293-CNG-TSHR cells (CNG channel as cAMP sensor), membrane potential dye, cAMP; active = well fitted activation curve of enough size with the parental cells flat; inconclusive = any curve in the parental cells; inactive = parental cells flat and receptor cells flat or falling; also: potency is read from the fitted curve at half-maximal effect; % of control where 0% means no effect; weak receptor curves with flat parental cells got no call and are not listed
Target sequence (P16473 whole entry, looked up): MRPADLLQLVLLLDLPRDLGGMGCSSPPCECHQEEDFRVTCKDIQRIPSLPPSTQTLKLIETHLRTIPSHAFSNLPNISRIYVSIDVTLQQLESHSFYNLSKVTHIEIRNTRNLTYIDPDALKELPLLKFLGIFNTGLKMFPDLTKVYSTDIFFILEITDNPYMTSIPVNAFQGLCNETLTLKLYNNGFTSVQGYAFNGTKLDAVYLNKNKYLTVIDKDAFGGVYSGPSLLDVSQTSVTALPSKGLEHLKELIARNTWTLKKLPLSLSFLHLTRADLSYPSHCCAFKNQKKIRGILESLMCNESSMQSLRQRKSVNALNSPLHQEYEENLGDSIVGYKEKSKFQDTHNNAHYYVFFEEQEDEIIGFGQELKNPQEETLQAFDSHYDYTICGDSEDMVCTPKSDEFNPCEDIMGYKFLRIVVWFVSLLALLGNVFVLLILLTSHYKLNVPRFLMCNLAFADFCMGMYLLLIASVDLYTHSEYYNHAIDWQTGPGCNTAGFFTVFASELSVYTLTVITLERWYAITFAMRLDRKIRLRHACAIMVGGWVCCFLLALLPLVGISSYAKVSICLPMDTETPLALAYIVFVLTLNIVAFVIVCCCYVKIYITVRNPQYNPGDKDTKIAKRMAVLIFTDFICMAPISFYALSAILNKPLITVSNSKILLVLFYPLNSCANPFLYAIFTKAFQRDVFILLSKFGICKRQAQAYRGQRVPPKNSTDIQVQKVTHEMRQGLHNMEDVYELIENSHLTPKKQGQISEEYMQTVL
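HEK 293 cells stably expressing TSHR and a cAMP-gated CNG channel; parental CNG-only cells as counterscreen. Cells preloaded 60 min with membrane potential dye plus 100 uM RO 20-1724, then compound 30 min; fluorescence read at 590 nm.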
Resorufin fluor – compounds fluorescent in resorufin spectral region; max dye-equivalent concentration, M; AID 588; Compound fluorescence, resorufin region 547/598 nm, buffer; hits give high values; 0.04% of 59,000 active; active = above 10 nM dye equivalent; inconclusive = 1 to 10 nM; inactive = 1 nM or less; a few of its hits are not listed in these tables; also: highest value over a series up to 38 µM
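Compounds in 100 mM Tris buffer, pH 8.0, incubated 15 min at room temperature, then read with 547 nm excitation and 598 nm emission filters. Fluorescence was converted to dye-equivalent concentration using an on-plate six-point resorufin standard curve.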
A647 autofl – compound fluoresces in the A647 spectral region | Compound fluorescence, A647 channel (570/671 nm), Tris buffer | max dye-equivalent concentration, M | 59,000 tested, under 10 active | AID 592; active means above 1 µM dye equivalent; inconclusive means 0.1 to 1 µM; inactive means 0.1 µM or less;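 also: values scaled relative to a standard on each plate; highest value over a series up to 38 µM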
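Compound fluorescence was measured in 100 mM Tris buffer, pH 8.0, after 15 min at room temperature, using 570 nm excitation and 671 nm emission filters. Signal was normalized to a per-plate Alexa 647 standard curve and expressed as dye-equivalent concentration at each compound concentration.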
AID923 – qHTS Assay for Allosteric/Competitive Inhibitors of Caspase-1: Spectroscopic Profiling in AFC Spectral Region; compound fluorescence, AFC spectral region (405/520 nm); almost no hit is shown here; AID 923, 2007; 1.1% of 75,000 active; Potency, µM (top dose mostly 57.5 µM), without a hit: at the highest dose fluorescence increase, actives largely listed as activators; active = well fitted activation curve with a large enough effect; inconclusive = small, poorly fitted or top-dose-only effect;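 also: potency is read from the fitted curve at half-maximal effect; 0% is about no effect; scaled to a free AFC standard on each plate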
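Titrations up to 57 uM read every 20 sec for 3 min (405/520 nm) with 50 nM caspase 1 and 5 uM Ac-WEHD-AFC, pH 7.5 HEPES buffer. Fluorescence-vs-time intercept gave baseline, scaled against on-plate AFC standard.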
A488 fluor – A488 region autofluorescence | max dye equivalency, M | 0.1% of 59,000 active | AID 591 | compound autofluorescence, A488 spectral region, dye equivalency; hits give high values; active = above 10 nM dye equivalent; inconclusive = 1 to 10 nM; inactive = 1 nM or less; about half of its hits are not listed in these tables;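 also: highest value over a series up to 38 µM; compound alone in buffer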
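Read-out: relative fluorescence at 480/540 nm, expressed as Alexa 488 dye-equivalent concentration from a six-point A488 standard included per plate. Conditions: 100 mM Tris, pH 8.0; 15 min incubation, room temperature.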
* marks the source's active call; other numbers are inactive results; i = inactive; ? = inconclusive; nt = no result given; & = joins results of further samples; [ ] = dose if it differs, or a comment. Not all compounds are listed (hit frequency here may not be typical).

mol	A647 autofl	Resorufin fluor	TSHR ag	A488 fluor	AID923
Cc1cccc(OCC(=O)N2CCN(C(=O)c3cccs3)CC2)c1	nt	nt	2%	nt	1.1%
C(#Cc1ccc(C#CCN2CCOCC2)cc1)CN1CCOCC1	nt	nt	13%	nt	0.5%
Cc1ccc(S(=O)(=O)N(c2ccccc2)C2CCS(=O)(=O)C2)cc1 (stereo not drawn)	1e-09	i	1%	i	-0.3%
CCOC(=O)CCCNS(=O)(=O)c1c(C)ccc2nsnc12	2.2e-08	i	-3%	i	0.2%
O=S(=O)(NCCN1CCCC1)c1cccc2cccnc12	nt	nt	?	nt	-1.7%
Nc1nc(SCc2ccccc2)ns1	2.3e-08	i	-6%	i	-1.4%
CCOc1ccc(Cn2c(O)cc(=O)[nH]c2=O)cc1	5.8e-08	i	nt	i	nt
C=CCOC(=O)C1=C(C)NC(SCC(=O)N(CC)CC)=C(C#N)C1c1ccccc1 (stereo not drawn)	3.5e-08	i	nt	i	nt
Cc1cc(N)ccc1NC(=O)c1ccccc1	1.3e-08	i	7%	i	-1.6%
O=C(CCCCCn1c(=S)[nH]c2cc3c(cc2c1=O)OCO3)N1CCN(C2CCCCC2)CC1	1e-09	i	-37%[inhibitor]	i	-0.3%
CCCNS(=O)(=O)c1ccc(CCC(=O)NCc2ccc3c(c2)OCO3)cc1	1e-09	i	-2%	i	0.4%
CCc1c(C)nc2ncnn2c1N1CCCC(C(=O)NCc2ccc3c(c2)OCO3)C1 (stereo not drawn)	3.2e-08	i	?	i	0.6%
CC(C)OC(=O)CSc1nc2ncc(Cl)cc2[nH]1	1.3e-08	i	?	i	-2.1%
COCCCNC(=O)CN1C(=O)c2ccccc2C1=O	2.3e-08	i	1%	i	0.3%
O=C(c1ccncc1)N1CCC2(CC1)CCN(c1ccc(-c3ccccc3)cc1)CC2	1e-09	i	13%	i	0.3%
CN=C1SC(CC(=O)Nc2cccc(C(F)(F)F)c2)C(=O)N1C (stereo not drawn)	1e-09	i	?	i	-1.0%
Cc1csc2nc(CNC(=O)CCC(=O)O)cn12	nt	nt	-2%	nt	-3.2%
c1ccc2c(CC3NCCN3)cccc2c1	2e-08	i	7%[11.4 µM]	i	-1.1%[11.5 µM]
Cc1ccc(NC(=O)CCN2C(=O)c3ccncc3C2=O)cc1	1.1e-08	i	0%	i	1.1%
COc1ccc(NC(=O)N2CC[C@@]3(CCCN(C(C)=O)C3)C2)cc1	9.6e-09	i	-3%	i	2.9%
CCc1ccc(S(=O)(=O)NCc2cn3ccccc3n2)s1	1.6e-08	i	-2%	i	0.1%
CCCCN(C)S(=O)(=O)c1ccc(C(=O)Nc2nnc(-c3cccs3)o2)cc1	1e-09	i	6%	i	-1.5%
O=C(NCCCN1CCCC1=O)c1ccc2c(=O)n(Cc3ccco3)c(=S)[nH]c2c1	1.6e-08	i	-1%	i	0.0%
Nc1ccc(CCS(N)(=O)=O)cc1	1.3e-09	i	3%	i	2.3%
CC1CCC2(CC1)NC(=O)c1ccccc1O2 (stereo not drawn)	1e-09	i	5%	i	0.3%
Cc1ccccc1Cn1c(C(C)O)nc2ccccc21 (stereo not drawn)	4.2e-08	i	nt	i	-0.9%
Cc1ccc(CC2CC(=O)N(c3ccc(Cl)cn3)C2=O)cc1 (stereo not drawn)	7.2e-08	i	5%	i	-2.2%
COc1ccc(N(CC(=O)N2CCN(c3ccccc3)CC2)S(=O)(=O)c2c(C)noc2C)cc1	nt	nt	14%	nt	-2.9%
Cc1ccccc1OC1C=CC(c2ccccc2)OC1CO (stereo not drawn)	nt	nt	-2%[11.4 µM]	nt	0.4%[11.5 µM]
Cc1cnc(CNc2cc(-c3ccccc3C(F)(F)F)ncn2)cn1	1.6e-08	i	?	i	1.4%
COc1ccccc1NC(=O)CN1CCN(CC(=O)Nc2ccc(F)cc2)CC1	1e-09	i	-2%	i	0.0%
COc1cccc(C(=O)N2CCN(Cc3ccc4c(c3)OCO4)CC2)c1OC	2.1e-08	i	10%	i	-0.1%
COC(=O)CCC(=O)COc1ccc(OC)cc1C#N	4e-08	i	1%	i	0.9%
CN(C)CCCNC(=O)c1ccc2[nH]c3ccccc3c2c1	3e-09	i	2%	i	0.4%
Cc1cnc(CNc2ncnc3ccc(-c4ccccc4C#N)cc23)cn1	2.3e-09	i	11%	i	0.2%
CCOC(=O)Nc1cccc(OCC(=O)Nc2ccccc2OC)c1	9.1e-09	i	12%	i	0.1%
CCC(C)SCc1nc2ccccc2[nH]1 (stereo not drawn)	nt	nt	16%	nt	2.4%
Cc1cc2n(n1)C(c1ccccc1Cl)Nc1ccccc1-2 (stereo not drawn)	2.1e-08	i	4%	i	-0.4%
COC(=O)c1ccc(=O)n(Cc2ccco2)c1	3.3e-08	i	nt	i	nt
Cc1cc(NC(=O)c2cc(-c3ccco3)on2)no1	1.2e-08	i	?	i	0.1%
CCOc1ccc(C2CC(c3cccc(C)c3)n3ncnc3N2)cc1 (stereo not drawn)	nt	nt	?	nt	-2.3%
CS(=O)(=O)N1CCC[C@@]2(CCN(Cc3nccs3)C2)C1	3e-08	i	?	i	-0.1%
COc1cccc(-n2nnc3c(=O)n(CC(=O)OCc4ccccc4)cnc32)c1	1e-09	i	?	i	-0.1%
O=C(NC[C@@H](O)CO)c1c(I)c(C(=O)NC[C@@H](O)CO)c(I)c(N(CCO)C(=O)CO)c1I	3.7e-08	i	-5%[25.6 µM]	i	-2.2%[25.7 µM]
CS(=O)(=O)N(CC(=O)NC1CC2CCC1C2)c1cccc(C(F)(F)F)c1 (stereo not drawn)	1e-09	i	17%	i	-0.7%
CCOCCCN(C(=O)CNC(=O)c1ccco1)C(C(=O)NC1CCCC1)c1ccccc1C (stereo not drawn)	1.8e-09	i	?	i	6.3%
CCOC(=O)c1cnn(-c2sc(C(=O)OCC)c(C)c2C(=O)OCC)c1N	3e-08	i	?	i	-0.7%
Nc1ccc(F)cc1F	nt	nt	-5%	nt	-1.4%
CCOC(=O)N1CCC(Nc2ncnc3c2cnn3-c2ccccc2)CC1	5.9e-09	i	1%	i	-0.2%
O=C1Nc2ccccc2C(O)(C(=O)NC2CC2)N1c1ccc(Cl)c(Cl)c1 (stereo not drawn)	4.8e-09	i	19%	i	0.7%
Clc1ccc(Cl)c(SCCCN2CCNCC2)c1	1.4e-08	i	3%[11.4 µM]	i	6.5%[11.5 µM]
N#CC(C(=O)NC1CCCCC1)c1nc2ccccc2nc1N1CCN(c2ccccc2F)CC1 (stereo not drawn)	1.2e-08	i	nt	i	nt
CCOC(=O)c1ccc(CNC(=O)CCC(=O)O)cc1	nt	nt	3%	nt	1.1%
CCc1nnc(NC(=O)c2nc3nccc(C)n3n2)s1	1.8e-08	i	12%	i	-1.8%
Cc1ccc2cc(CN(CCN3CCCC3)C(=O)Nc3ccccc3)c(=O)[nH]c2c1C	6.5e-09	i	27%	i	-1.9%
Cc1[nH]c(=O)c(C#N)cc1-c1ccncc1	1e-09&1.2e-08	i	24%	i	-2.3%
CC(=O)n1cc(Nc2ccccc2C(=O)O)c2ccccc21	nt	nt	-3%	nt	5.9%
O=C(NC1CCCCC1)N(Cc1nc2ccccc2c(=O)[nH]1)C1CCCC1	1e-09	i	3%	i	0.6%
CC(C)(C)NC(=O)CSc1nc(O)cc(=O)n1-c1ccccc1F	nt	nt	-10%	nt	2.8%
COC(=O)c1cnc2c(C(F)(F)F)cccc2c1OC	1e-09	i	5%	i	-3.0%

Just AID923 and A488 fluor (3 entries from above):
molecule | AID923 | A488 fluor
Cc1cc2n(n1)C(c1ccccc1Cl)Nc1ccccc1-2 (stereo not drawn) | -0.4% | i
COC(=O)c1ccc(=O)n(Cc2ccco2)c1 | nt | i
Cc1cc(NC(=O)c2cc(-c3ccco3)on2)no1 | 0.1% | i

Carrying on.
mol	A647 autofl	Resorufin fluor	TSHR ag	A488 fluor	AID923
Cc1ccc(CNC(=O)CN(C)S(=O)(=O)c2cccc3nsnc23)cc1	3.4e-09	i	-3%	i	1.1%
CCn1cc(SCC(=O)NCc2ccc3c(c2)OCO3)c2ccccc21	nt	nt	?	nt	-2.3%
CCOc1ccc(C(=O)N2CCCN(C(=O)c3ccc(OCC)cc3)CC2)cc1	nt	nt	20%	nt	-2.9%
CCOC(=O)C1CCN(CC(=O)c2c(C)[nH]c3cc(C)ccc23)CC1	4e-08	i	28%	i	0.7%
CC(C)C(=O)Nc1nnc(Cc2ccccc2)s1	1e-09	i	-3%	i	-0.8%
CCOc1ccc(NC(=O)c2ccncc2)cc1	3.6e-09	i	22%	i	0.3%
CCS(=O)(=O)N1CCC(C(=O)NCc2ccccn2)CC1	8.5e-09	i	10%	i	1.3%
Cc1oc(-c2ccccc2)[n+]([O-])c1C	1e-09	i	3%	i	-0.2%
CCC(=O)N1CCN(c2ccccc2NC(=O)Cc2ccc(Cl)cc2)CC1	4.7e-08	i	29%	i	0.8%
Cn1cc(C(=O)NC2CCCCCC2)c(=O)c2cc(S(=O)(=O)N3CCCC3)ccc21	2.6e-08	i	?	i	0.2%
C[C@@H]1[C@H](O)[C@@H](C)/C=C/C=C/C=C/C=C/C=C/C=C/C=C/[C@H](O[C@@H]2O[C@H](C)[C@@H](O)[C@H](N)[C@@H]2O)C[C@@H]2O[C@](O)(C[C@@H](O)C[C@@H](O)[C@H](O)CC[C@@H](O)C[C@@H](O)CC(=O)O[C@H]1C)C[C@H](O)[C@H]2C(=O)O	nt	nt	-11%	nt	8.2%
O=C(NCc1ccc2c(c1)OCO2)c1ccc(S(=O)(=O)NCC2CCCO2)cc1 (stereo not drawn)	1.5e-08	i	4%	i	-2.2%
CCS(=O)(=O)NCCc1ccc(OC)c(OC)c1	1.1e-09	i	-3%	i	1.1%
COc1ccccc1N1CC(C(=O)OC(C)C(=O)N2CCCc3ccccc32)CC1=O (stereo not drawn)	2e-08	i	0%	i	1.7%
Cc1ccccc1-n1c(=O)c2ccccc2n2nnnc12	1.2e-09	i	-1%	i	1.9%
CCCCOC(=O)Nc1ccc(OC)cc1S(=O)(=O)N1CCOCC1	2.7e-08	i	-1%	i	0.7%
O=C(CSc1nc(-c2ccco2)cc(C(F)(F)F)n1)Nc1cccnc1	1e-09	i	-1%	i	-0.9%
O=S(=O)(c1ccc(Cl)c(Cl)c1)N1CCc2nc3ccccc3n2CC1	nt	nt	17%[11.4 µM]	nt	0.2%
CCCC(=O)Nc1ccc(NC(=O)c2ccccn2)cn1	1e-09	i	-3%[11.4 µM]	i	0.7%
Cc1nc2ncccn2c1-c1csc(NCc2ccco2)n1	1e-09	i	-15%	i	-0.1%

Assay outcomes deposited in PubChem by National Center for Advancing Translational Sciences (NCATS).
